# HSV replic up – increases HSV replication in cells. HSV replication augmentation in cells, fold increase. maximum fold increase. 220,000 compounds, 0.005% hits. AID 1956;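 active means peak rise of 1.5-fold or more in the series; tested in PC3 cells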;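 further: first round at 10 µM; read as green reporter fluorescence; hits show the peak of a series up to 25 µM; 1 = signal of infected wells without compound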
# PKD1 kinase inh – PKD1 (human) kinase inhibition; Q15139; PKD1 kinase fluorescence polarization assay; 200,000 compounds, 0.056% hits; inhibition, %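 (about 10 µM by stock and volumes)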; AID 797;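 active means inhibition of 50% or more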;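 further: controls were vehicle for no effect and a reference inhibitor for full effect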
# Target sequence (Q15139 whole entry, looked up): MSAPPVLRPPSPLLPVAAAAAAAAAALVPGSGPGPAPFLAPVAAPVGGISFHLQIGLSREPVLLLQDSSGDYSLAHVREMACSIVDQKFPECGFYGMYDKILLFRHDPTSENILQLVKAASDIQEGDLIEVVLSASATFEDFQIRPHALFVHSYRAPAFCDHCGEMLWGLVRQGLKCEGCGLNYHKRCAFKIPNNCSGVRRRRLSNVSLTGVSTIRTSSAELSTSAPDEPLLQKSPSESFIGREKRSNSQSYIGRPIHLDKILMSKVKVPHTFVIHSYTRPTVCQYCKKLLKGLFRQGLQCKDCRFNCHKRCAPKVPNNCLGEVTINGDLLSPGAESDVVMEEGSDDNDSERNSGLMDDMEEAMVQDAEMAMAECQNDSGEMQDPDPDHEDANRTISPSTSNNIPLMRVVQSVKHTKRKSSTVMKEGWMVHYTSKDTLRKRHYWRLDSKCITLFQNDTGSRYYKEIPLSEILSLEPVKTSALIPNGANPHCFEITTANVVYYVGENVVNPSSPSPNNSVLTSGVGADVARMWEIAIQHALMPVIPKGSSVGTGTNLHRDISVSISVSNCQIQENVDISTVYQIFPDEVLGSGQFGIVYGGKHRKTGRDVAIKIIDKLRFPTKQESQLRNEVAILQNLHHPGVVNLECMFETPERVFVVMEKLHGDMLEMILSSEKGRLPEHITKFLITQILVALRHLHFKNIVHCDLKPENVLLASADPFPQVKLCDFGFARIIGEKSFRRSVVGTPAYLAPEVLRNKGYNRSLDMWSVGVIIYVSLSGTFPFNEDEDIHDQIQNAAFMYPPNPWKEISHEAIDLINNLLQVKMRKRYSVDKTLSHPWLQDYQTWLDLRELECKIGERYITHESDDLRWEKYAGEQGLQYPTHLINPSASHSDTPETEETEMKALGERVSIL
# RGS16-Gao – RGS16-Galphao interaction regulator (human) | binding response (% of control), % at 10 µM | bead-based flow cytometry RGS16-Galphao binding, fluorescence; actives lie on both sides | 220,000 compounds, 0.38% hits | AID 1441 | O15492+P09471;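 active means below 25% or above 175%, edge rows of some plates excepted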;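 further: Galphao activated by GDP with aluminum fluoride before binding; 100% = wells without compound and 0% = beads without RGS; some results beyond the cut were filed as inactive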
# GALR2 ag – activates the human galanin receptor 2; 140,000 compounds, 0.48% hits; GALR2-expressing cells, agonist activation read-out; activation, %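 (tested at 5 µM)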;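 active means above mean plus 3 SD of all compounds, about 5% in these data, not always enough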;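 further: 0% = vehicle buffer wells and 100% = reference agonist at full effect; tested in CHO reporter cells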
# INS promoter inh – TRM-6 insulin promoter activity inhibition; inhibition, % at 2 µM; TRM-6 cells (human fetal islet line), insulin promoter-eGFP reporter, imaging; reporter expression induced with tamoxifen; AID 1273; 130,000 compounds, 0.9% hits;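 active means inhibition above the mean plus 3 SD, with well images judged a real hit on visual review, cut at about 60% in these data, passing the limit was not always enough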
# INS promoter inh cell count – second read-out of INS promoter inh, no call of its own (marks repeat the call); normalized cell count, %; measured here: cell count, toxicity; reference of the scale not given here;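 cells exposed to compound for 48 h; stained nuclei by imaging scaled within each plate; lower means fewer cells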
# HSV replic up primary fold – second read-out of HSV replic up, no call of its own (marks repeat the call); fold increase; compound at 10 µM; measured here: primary screen fold increase 10 uM; tested in PC3 cells;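 GFP signal in the first replicate; 1 = infected wells without compound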
# Active calls of the source: *; i = inactive; . = no result given.
molecule,HSV replic up,HSV replic up primary fold,PKD1 kinase inh,RGS16-Gao,GALR2 ag,INS promoter inh,INS promoter inh cell count
Cc1cc(=O)cc(C)n1-c1ccccc1N1CCOCC1,i,0.93,-10,101,0.0,58,141
Cc1ccc(C(=O)O/N=C2\CC3CCC2(C)C3(C)C)cc1 (configuration not stated),i,0.82,-6,101,-1.3,-26,136
O=C(Cc1ccccc1[N+](=O)[O-])N1CCc2ccccc2C1,i,1,-6,102,.,-21,93
COc1cccc(N2CCN(C3CC(=O)N(c4cccc(Cl)c4)C3=O)CC2)c1 (configuration not stated),i,1,-6,98,-1.2,4,103
Cc1ccc(Nc2nc(N)nc(CCl)n2)c(C)c1,i,0.61,.,98,.,.,.
N/C(=N\OC(=O)c1ccc(Cl)cc1Cl)c1ccncc1,i,0.91,.,111,.,.,.
COc1ccc(N2C(=O)CC(NNC(=O)c3ccco3)C2=O)cc1 (configuration not stated),i,0.85,-1,65,.,50,106
COC(=O)c1ccc(CSc2nc(-c3ccco3)cc(C(F)(F)F)n2)o1,i,0.91,-7,92,-2.5,60,111
Cc1cccc(NC(=O)CCCn2cc([N+](=O)[O-])cn2)n1,i,0.93,-2,61,.,42,111
CCOc1ccc(N(CC(=O)Nc2cccnc2)S(C)(=O)=O)cc1,i,0.94,0,107,.,11,57
CCN(CC)S(=O)(=O)c1ccc2c(c1)nc(CCC(=O)Nc1ccc3c(c1)OCO3)n2CC,.,.,-1,20*,-1.5,23,55
O=C(NCC(=O)N1CCCC1C(=O)O)OC1CCCCC1 (configuration not stated),i,0.96,-1,160,-2.8,7,86
Cc1cccc(-n2c(C)cc(/C=N\NC(=O)c3ccco3)c2C)c1,i,1.1,-3,102,.,12,122
Cc1cc(C)c2c(CN3CCN(Cc4ccc5c(c4)OCO5)CC3)cc(=O)oc2c1,i,0.94,8,117,1.3,50,93
CC1(C)CC(=O)C(/C=N/c2ncccc2C(=O)O)=C(O)C1,i,0.86,-4,101,-0.3,31,105
O=C(Nc1ccccc1C(=O)NCC1CCCO1)c1ccccc1 (configuration not stated),i,0.93,-10,108,-0.5,.,.
CCOc1ccc(/C=c2\sc3nc(-c4ccco4)nn3c2=O)cc1OCC,i,0.8,-10,45,-2.9,36,114
O=c1c2cc(Cl)cc(Cl)c2nc2n1CCC2,i,1,-6,99,.,.,.
Cc1cc(C)cc(OCC(=O)Nc2ccc3c4c(cccc24)CC3)c1,i,0.8,-14,100,-1.1,.,.
Clc1cccc(Cl)c1Cn1ccc(C2CC2)n1,i,0.93,5,97,.,.,.
COc1ccc(Cn2c(O)c(C=Nc3ccc(O)cc3)c3ccccc3c2=O)cc1,i,0.75,-10,110,0.8,39,138
Cc1csc(SCC(=O)Nc2ccccc2[N+](=O)[O-])n1,i,1.1,-1,98,.,-27,85
CC(=O)Nc1ccc2c(c1)ncn2-c1ccc(C)cc1,i,0.88,2,95,.,.,.
CCCCNC(=O)COC(=O)c1ccc(Cl)c(S(N)(=O)=O)c1,i,1,8,96,-1.1,31,127
Nc1nn(-c2cccc(F)n2)cc1-c1ccccc1,i,1,3,101,.,.,.
CCc1n[nH]c(=S)n1/N=C/c1c(C)nn(-c2ccccc2)c1Cl,i,0.82,-2,97,.,.,.
Cc1[nH]c(=O)[nH]c(=O)c1S(=O)(=O)NCCOC12CC3CC(CC(C3)C1)C2,i,0.83,4,100,-0.2,-12,122
O=C(COC(=O)c1cn(-c2ccccc2)nc1-c1ccccc1)Nc1ncc(Cl)cc1Cl,i,0.94,.,96,.,.,.
O=C(/C=C/c1ccc(Br)o1)NC(c1ccccc1)c1ccccc1,i,1,2,101,-2.6,.,.
Cc1nnc(SCC(=O)N2CCC(Cc3ccccc3)CC2)n(N)c1=O,i,0.89,-3,100,-1.4,-175,125
CCc1nc(Cl)c(C#N)c2c1CSC(C)(C)C2,i,0.94,5,103,0.2,11,101
CCN(CC)C(=O)CSc1nc2sc(C)c(C)c2c(=O)[nH]1,i,1,-2,101,-1.7,14,86
S=C(NCCCNC(=S)Nc1ccccc1)Nc1ccccc1,.,.,10,53,-0.7,17,97
Cc1cccc(Cl)c1OCCCCn1ccnc1,i,0.92,-13,104,-2.9,20,112
CC1(C)Oc2ccc3ccc(=O)oc3c2/C(=C/NCCN/C=C2\C(=O)C(C)(C)Oc3ccc4ccc(=O)oc4c32)C1=O,.,.,1,102,0.0,.,.
COc1ccc(CC(C)N2CCN(c3cccc(C(F)(F)F)c3)CC2)cc1OC (configuration not stated),i,0.98,3,51,-0.9,-39,103
O=c1c(-c2ccccc2)coc2cc(O)ccc12,i,0.82,-1,109,.,-47,73
O=C(CSc1nnc2scc(-c3ccccc3)n12)c1ccc2c(c1)OCCO2,i,0.85,2,103,-2.4,.,.
Cc1cc(NC(=O)CSc2nnc(COc3cccc(C)c3C)n2Cc2ccco2)no1,i,0.94,-9,94,-1.8,36,84
CCOc1ccc(CC(=N)C2=C(O)CC(C)(C)CC2=O)cc1OCC,i,0.91,1,101,0.2,-53,124
CCCS(=O)(=O)N1CCCC(C(=O)NCCN2CCOCC2)C1 (configuration not stated),i,1,-1,97,-1.1,.,.
Cc1ccc(OCC(=O)Nc2ccc3c(c2)nc2n3CCOC2)cc1,i,0.88,-14,115,-1.4,.,.
Cc1ccc(NC(=O)CSc2nc(C)c(Cc3ccccc3)c(=O)[nH]2)cc1C,i,0.98,2,97,.,.,.
O=C(O)CCC(=O)/C=C/c1ccccc1,i,1,-2,96,.,.,.
CCOC(=O)C1CCCN(C(=O)/C=C/c2ccc(Cl)cc2)C1 (configuration not stated),i,0.98,-6,109,.,.,.
CN(C)c1ncc(S(=O)(=O)c2ccccc2)c(-c2ccc(Cl)cc2Cl)n1,.,.,7,101,-2.1,.,.
COc1ccc(CC(=O)NC(CC(=O)O)c2ccc(OC)cc2)cc1 (configuration not stated),i,0.91,-8,100,-1.9,21,102
COc1c(Cl)cc(Cl)cc1CNCCNCCO,i,0.69,8,99,-0.8,.,.
COc1cccc(N2C(=O)CC(N3CCN(S(=O)(=O)c4ccccc4)CC3)C2=O)c1 (configuration not stated),i,0.99,10,102,-3.1,.,.
Cc1cccc(C(=O)NC(=S)Nc2ccc(S(=O)(=O)N3CCN(C)CC3)cc2)c1,i,0.86,-4,100,-1.6,10,126
O=c1oc2ccccc2cc1-c1csc(Nc2nc3ccc(F)cc3s2)n1,i,0.62,-16,97,0.1,-56,169
O=S(=O)(NCCCN1CCN(c2ccccc2F)CC1)c1cccc2cccnc12,i,0.88,-14,104,-0.7,.,.
Cc1ccc(C)c(N(CC(=O)NC2CCCC2)C(=O)c2cc3cc4cc(C)ccc4nc3s2)c1,i,0.85,15,106,-0.8,-85,49
O=C(Nc1ccc(-c2csc(Nc3ccccc3)n2)cc1)c1cc([N+](=O)[O-])cc(C(F)(F)F)c1,i,0.67,.,95,.,.,.
COc1ccc2nc(Nc3nc(CSc4ccc(C)cc4)cc(=O)[nH]3)nc(C)c2c1,i,0.91,-7,102,.,.,.
S=c1[nH]nc(C23CC4CC(CC(C4)C2)C3)n1Cc1ccco1,i,0.89,5,101,-1.0,-22,122
CCC(C(=O)NC(C)CCc1ccco1)n1nc(C)n2c(cc3occc32)c1=O (configuration not stated),i,1,-1,126,-1.5,.,.
CC1(C(=O)NCC2CCCO2)Oc2cccnc2NC1=O (configuration not stated),i,1,-6,100,.,.,.
COC(=O)c1c(NC(=O)CCCC(=O)O)sc2c1CCC2,i,1.1,-2,95,0.3,18,104
CCCNC(=O)Cn1c(-c2ccc(F)cc2)cc(C(=O)OCC)c1C,i,1,-5,99,.,0,82

# Further results:
molecule,HSV replic up,HSV replic up primary fold,PKD1 kinase inh,RGS16-Gao,GALR2 ag,INS promoter inh,INS promoter inh cell count
CCC(=O)Nc1cc(-c2cc3ccccc3oc2=O)ccc1OC,i,0.85,-5,103,.,.,.
O=C(COC(=O)Cc1ccccc1F)Nc1cccc(F)c1,i,0.89,-4,98,.,.,.
Cc1nonc1OCCN1CCN(c2ccccc2[N+](=O)[O-])CC1,i,0.96,-7,81,.,-29,88
CC(C)(C)c1cc(CSC(=S)NC2CCS(=O)(=O)C2)c(Br)c(C(C)(C)C)c1 (configuration not stated),i,0.83,3,97,.,.,.
Oc1c(C=C2N=c3ccccc3=N2)sc(=S)n1-c1ccc2ccccc2c1,i,0.84,.,100,.,.,.
O=C(NCCC1=CCCCC1)Nc1ccc2nsnc2c1,i,0.95,-1,106,.,-29,80
O=C(COc1cccc(F)c1)Nc1ccc2[nH]c(=O)[nH]c2c1,i,0.92,-3,110,.,15,124
Fc1ccc(NC(=S)Nc2ccc(F)c(Cl)c2)cc1Cl,i,1.1,10,106,-0.8,.,.
Cc1ccc(NC(NC(=O)c2ccccc2[N+](=O)[O-])C(Cl)(Cl)Cl)cc1 (configuration not stated),i,1.1,9,111,0.3,.,.
CCOc1ccc(N=c2cc(-c3ccc(OC)cc3)oc3ccccc23)cc1,i,1,-7,103,-0.6,.,.
O=C(NCc1cccs1)C(=O)c1c[nH]c2ccccc12,i,1,-5,88,.,-55,18
CC(C(=O)NN)n1nnc(N2CCOCC2)n1 (configuration not stated),i,0.91,.,91,.,.,.

# In the list so far, two have bromine:
molecule,HSV replic up,HSV replic up primary fold,PKD1 kinase inh,RGS16-Gao,GALR2 ag,INS promoter inh,INS promoter inh cell count
O=C(/C=C/c1ccc(Br)o1)NC(c1ccccc1)c1ccccc1,i,1,2,101,-2.6,.,.
CC(C)(C)c1cc(CSC(=S)NC2CCS(=O)(=O)C2)c(Br)c(C(C)(C)C)c1 (configuration not stated),i,0.83,3,97,.,.,.

# Continued:
molecule,HSV replic up,HSV replic up primary fold,PKD1 kinase inh,RGS16-Gao,GALR2 ag,INS promoter inh,INS promoter inh cell count
CSc1cccc(NC(=O)C2CCCN2S(=O)(=O)c2ccc3c(c2)CCC(=O)N3)c1 (configuration not stated),i,1.1,-7,104,-1.5,.,.
OCC1CCCCN1C(=S)Nc1cccc(Cl)c1 (configuration not stated),i,0.92,-5,96,.,.,.
COc1ccc(C)cc1S(=O)(=O)N1CCCCC1,i,1.3,-8,102,-1.2,31,136
CCc1ccc(NC(=O)CSc2nnc(CC)c(CC)n2)cc1,i,0.8,2,98,22*,-13,111
Cc1ccc(NC(=O)Cn2c(O)c(N=NC(N)=O)c3ccccc32)cc1,i,0.89,.,99,.,.,.
Nc1c(C(=O)c2ccc(F)cc2)oc2ccccc12,i,1.1,-2,109,1.3,-44,100
CCOC(=O)c1cc(-c2ccccc2)sc1NC(=O)C(C)(C)C,i,1,9,98,-3.7,58,112
Cc1nnc(SCC(=O)N(C)CC(=O)Nc2ccc(F)cc2)n1Cc1ccccc1,i,0.96,-3,99,.,.,.
C=CCSC1=C(C#N)C(c2ccccc2OCC)C(C#N)C(=O)N1 (configuration not stated),i,1.3,4,97,-2.1,.,.
CCCc1nc(N)sc1C(=O)OCC,i,0.93,-4,81,0.8,.,.
COc1ccc(/C=N/n2c(C)nc3sc(C)c(C)c3c2=O)cc1,i,1.2,.,98,.,.,.
CCN(CC)C(=O)CSc1nnc(-c2ccc(S(=O)(=O)N3CCCC3)cc2)o1,i,0.98,-8,104,0.6,-7,151

# The closing three compounds of the part above lead into the next:
molecule,HSV replic up,HSV replic up primary fold,PKD1 kinase inh,RGS16-Gao,GALR2 ag,INS promoter inh,INS promoter inh cell count
CCCc1nc(N)sc1C(=O)OCC,i,0.93,-4,81,0.8,.,.
COc1ccc(/C=N/n2c(C)nc3sc(C)c(C)c3c2=O)cc1,i,1.2,.,98,.,.,.
CCN(CC)C(=O)CSc1nnc(-c2ccc(S(=O)(=O)N3CCCC3)cc2)o1,i,0.98,-8,104,0.6,-7,151
Cc1nnc(NC(=O)CSc2nnc(-c3ccc(S(=O)(=O)N4CCCC4)cc3)n2C)s1,i,0.91,-6,103,-1.7,62,93
O=S(=O)(Nc1cccnc1Cl)c1ccc2c(c1)OCCO2,i,0.76,-1,82,-2.4,-5,103
CCOc1ncccc1C(=O)OCC(=O)c1ccc(OC)c(OC)c1,i,1.1,6,104,.,-55,68
Cc1cc2c(cc1C)/C(=N/NC(=O)c1ccccn1)CCC2,i,1,.,100,.,.,.
COC(=O)C1=C(C)NC(C)=C(C(=O)OC)C1c1ccco1,i,0.93,.,106,.,.,.
Cc1cc(NCC(C)C)n2ncnc2n1,i,1.1,-4,665,-1.4,-5,104

# Assay outcomes: PubChem BioAssay, several laboratories
